Beta cell apopt: inhibitors of cytokine-induced beta cell apoptosis, primary screen, luminescence; INS-1E cytokine-induced death, ATP luminescence, 48 h; percent of positive-control rescue, neutral wells zero; protection from apoptosis, % (no concentration beside the values); hit rate 0.8% among 300,000;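 active means all replicates at 75% or more, or half of them and the mean; inconclusive means half reach 75% but not the mean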;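 further: 0% = cytokine-treated negative control wells and 100% = positive control rescue; higher means more ATP so stronger rescue from cytokine killing; wells of about 40 µL received 100 nL stock; the first replicate is given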
T cruzi inh: inhibitors of intracellular T. cruzi growth, primary screen, luminescence, NIH3T3 host cells | T. cruzi beta-gal in NIH3T3, 90 h | inhibition, % (test concentration not listed) | hit rate 1.4% among 300,000 | AID 1885, 2009;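 active means mean inhibition across valid replicates above about 55%, limit read from the data; inconclusive means mean below that limit but half or more replicates reach it; inactive means mean below it, under half of replicates reach it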;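 further: signal also drops with host cell toxicity which is not excluded here; 0% = plate median of DMSO wells and 100% = zero luminescence signal; higher percent means less beta-gal luminescence so fewer parasites; stock transfer was 50 nL into about 50 µL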
Vif TR-FRET: inhibitors of Vif binding to APOBEC3G peptide, primary screen, biochemical, TR-FRET, GST-Vif 1-94, biotin-A3G peptide, dose response retest (AID 1117319); Virion infectivity factor (Human immunodeficiency virus type 1 group M subtype B (isolate …; TR-FRET GST-Vif / biotin-A3G peptide binding; higher % means a stronger effect; test concentration not given here; strong numbers were not always called active; inhibition, %; hits with a dose series show IC50 in µM; hit rate 0.57% among 260,000;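 active means above the screen mean plus three standard deviations and confirmed in dose response; inconclusive means results disagree or hit not tested in dose response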;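 further: Vif residues 1-94 fused to GST binding biotinylated APOBEC3G peptide 110-148; 0% = full assay without inhibitor and 100% = GST in place of GST-Vif; retest series ran down from 100 µM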
RanGTP-Imp inh: inhibitors of RanGTP-importin-beta interaction, primary screen, biochemical, FRET, CFP-Ran, YFP-importin-beta, homogeneous; inhibition, % (no concentration beside the values); hit rate 1.1% among 300,000; Ran GTPase (GTP-bound) - importin-beta complex; cell-free CFP-Ran/YFP-importin-beta FRET ratio;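 active means most replicates above 15%; inconclusive means exactly half above 15%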;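 further: 0% = DMSO wells and 100% = Ran loaded with GDP instead of GTP; wells of about 40 µL received 100 nL stock; the first replicate is given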
MLL AF4-AF9 inh: inhibitors of AF4 peptide binding to AF9, primary screen, biochemical, AlphaScreen, biotin-AF4 peptide, FLAG-AF9, single point; Protein AF-9 (Homo sapiens), P42568; inhibition, % at 10 µM; hit rate 0.47% among 350,000;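 active means every replicate reaching a set inhibition limit, whatever the replicate mean, cut at about 25% in these data; inconclusive means mean inhibition reaches that limit but some replicates miss it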;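 further: 0% = plate neutral control median and 100% = total signal loss; the record names both 10 and 1 µM as test concentration; the first replicate is given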
LANA-H2B inh: blockers of LANA interaction with H2A/H2B – biochemical, FP readout, HTS, primary screen. Protein LANA1 (Human herpesvirus 8 type P (isolate GK18)), Q9QR71. hit rate 0.6% among 320,000. inhibition, % (concentration not given with the values). cell-free LANA-H2A/H2B peptide, fluorescence polarization; in the data active means inhibition mostly above about 10%, no sharp cut-off; inactive means mostly below about 6.7%;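 further: stock transfer was 7.5 nL into about 10 µL; 0% = median of vehicle wells and 100% = median of positive control wells; one replicate is shown; the record names a cut of 25% in any replicate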
Target sequence (Q9QR71 whole entry, looked up): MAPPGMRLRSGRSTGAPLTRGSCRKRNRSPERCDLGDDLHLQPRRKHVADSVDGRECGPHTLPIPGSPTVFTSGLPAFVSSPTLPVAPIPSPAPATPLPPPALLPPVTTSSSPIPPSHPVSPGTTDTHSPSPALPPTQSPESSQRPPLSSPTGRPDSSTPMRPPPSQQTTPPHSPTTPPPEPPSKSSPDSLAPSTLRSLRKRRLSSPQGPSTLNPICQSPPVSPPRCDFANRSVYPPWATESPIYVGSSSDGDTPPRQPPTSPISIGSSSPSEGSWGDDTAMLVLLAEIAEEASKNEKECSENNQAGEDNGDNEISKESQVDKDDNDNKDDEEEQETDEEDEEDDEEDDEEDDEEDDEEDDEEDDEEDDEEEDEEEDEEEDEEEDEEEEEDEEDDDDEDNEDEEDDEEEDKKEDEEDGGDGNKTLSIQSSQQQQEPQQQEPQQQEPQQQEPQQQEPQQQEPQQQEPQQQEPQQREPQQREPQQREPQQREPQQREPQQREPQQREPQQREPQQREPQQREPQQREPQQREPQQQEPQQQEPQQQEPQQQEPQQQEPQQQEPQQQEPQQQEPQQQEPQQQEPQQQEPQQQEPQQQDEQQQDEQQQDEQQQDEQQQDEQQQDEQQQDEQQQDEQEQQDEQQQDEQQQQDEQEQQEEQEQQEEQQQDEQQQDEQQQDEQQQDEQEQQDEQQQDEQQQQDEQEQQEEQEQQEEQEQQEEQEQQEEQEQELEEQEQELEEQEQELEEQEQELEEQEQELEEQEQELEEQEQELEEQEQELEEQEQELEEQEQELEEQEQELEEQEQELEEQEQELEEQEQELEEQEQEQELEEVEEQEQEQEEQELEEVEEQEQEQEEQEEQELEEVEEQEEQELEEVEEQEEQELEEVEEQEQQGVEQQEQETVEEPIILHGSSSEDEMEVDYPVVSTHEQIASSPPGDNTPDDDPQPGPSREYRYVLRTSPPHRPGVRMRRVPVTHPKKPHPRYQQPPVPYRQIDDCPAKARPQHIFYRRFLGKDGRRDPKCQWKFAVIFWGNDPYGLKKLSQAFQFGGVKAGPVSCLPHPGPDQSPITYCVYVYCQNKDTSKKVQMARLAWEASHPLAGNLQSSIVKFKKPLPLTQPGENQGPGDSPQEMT
Bfl-1 A1 inh: caspase 3/7 activation in MEF A1-2A-BIM cells, primary screen, A1 inhibitor project, cell-based, luminescence, HTS; caspase activation, % (concentration not given with the values); Caspase-Glo 3/7 luminescence, 3 h; percent of clofoctol response, vehicle zero; hit rate 0.066% among 330,000;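 active means over half of replicate activation scores above 10%, or exactly half above 10 with the replicate mean above 10; inconclusive means replicate mean below 10 yet half the replicates above 10; inactive means over half of replicates below 10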;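 further: wells of about 30 µL received 50 nL stock; many hits fall short of the cut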
Calb FLC: C. albicans growth inhibition with fluconazole, primary screen, CaCi-2 strain, Alamar Blue fluorescence | hit rate 0.57% among 300,000 | growth inhibition, % (no concentration beside the values) | C. albicans CaCi-2 (fluconazole-resistant clinical isolate) + fluconazole, 48 h;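 active means most replicates above 75%; inconclusive means exactly half above 75%; inactive means most below 75%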;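 further: all wells also contain fluconazole at 8 µg/ml as a sub-toxic cotreatment; 0% = median of DMSO wells and 100% = median of geldanamycin control wells; wells of about 8 µL received 7.5 nL stock; the first replicate is given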
An asterisk follows results filed as active; ? = inconclusive; nt = not tested or not shown; & = joins results of further samples.

SMILES	Beta cell apopt	T cruzi inh	Vif TR-FRET	RanGTP-Imp inh	MLL AF4-AF9 inh	LANA-H2B inh	Bfl-1 A1 inh	Calb FLC
COc1ccc(C(=O)NCc2nnc(SCC(=O)N3CCCC3)o2)cc1	-3	1	nt	2.3	-4.7	-8.0	-0.3	2
COc1cccc(C(c2nnnn2CS(=O)(=O)c2ccc(C)cc2)N2CCN(C)CC2)c1OC (stereo not drawn)	nt	-4	-3%	3.4	nt	6.8	0.2	5
Clc1cccc(-c2nnc(-c3ccccc3)o2)c1	5	-4	0%	-0.4	nt	-0.1	-7.2	4
CC(C)c1ccc(NC(=O)CSc2nnc(CN3CCOCC3)n2C)cc1	nt	7	nt	0.1	14	-6.8	-0.5	0
Cc1nc2c(=O)[nH]c(=S)n(C)c2nc1C	-7	-33	nt	1.1	-3.0	3.3	0.5	13
O=C(NCCCN1CCOCC1)c1ccc(S(=O)(=O)Nc2cccc(C(F)(F)F)c2)cc1	2	14	7%	-2.2	-1.5	3.2	0.3	9
Cn1c(NCCN2CCOCC2)nc2c1c(=O)n(Cc1cccc(Cl)c1)c(=O)n2C	6	-12	0%	1.9	nt	-2.8	0.0	-32
COc1ccc(Cc2nnc3sc(SCC(=O)Nc4ccccc4)nn3c2=O)cc1OC	nt	-5	2%	3.2	-5.2	0.2	0.6	12
O=C(Nc1cccc(Br)c1)c1ccn[nH]1	4	-4	0%	3.8	nt	0.8	-6.6	-1
CCOC(=O)[C@H]1[C@H]2COc3ccc(OC)cc3[C@@H]2N2C(=O)c3cc(C)ccc3NC(=O)[C@@]12C	6	nt	nt	nt	4.2	0.4	0.6	nt
COc1cc(OC)c(OC)cc1/C=C/C(=O)c1ccc(NS(=O)(=O)c2ccc(C)cc2)cc1	nt	23	0%	-107	nt	0.2	-0.3	24
CCN(C(=O)CSc1nc2cc(C(=O)O)ccc2c(=O)n1Cc1ccccc1)c1ccccc1	-1	12	-2%	3.8	1.3	-1.9	-0.3	nt
CC(C)(C)OC(=O)N1CCCN(C(=O)Nc2ccc(C(F)(F)F)cc2)CC1	11	-3	-3%	3.8	-0.3	-4.8	-0.1	12
CCOC(=O)c1c(CN2CCOCC2)n(-c2ccccc2)c2cc(Br)c(OC)cc12	0	23	4%	?	nt	2.5	-1.3	9
CCOC(=O)Cc1csc(NC(=O)CSc2nc(N)c3c(C)c(C)sc3n2)n1	0	3	1%	1.8	nt	-4.6	-0.3	18
Cc1cc(C)cc(C(=O)OCC(=O)NC2CCCC2)c1	-6	-17	-4%	-0.7	-5.3	-5.8	0.4	-15
Cc1nn(C(=O)Cn2ccc([N+](=O)[O-])n2)c(C)c1Cl	nt	0	-3%	-0.7	2.4	-0.8	0.9	1
NS(=O)(=O)c1ccc(-c2cccc(/C=C3\SC(=O)NC3=O)c2)cc1	1	-12	nt	3.9	0.0	-2.0	0.8	-4
CC/C(=N/Nc1ccccc1)c1cnnc(SC)n1	4	16	-2%	-2.4	nt	-0.2	1.0	-2
O=C(CCn1c(=O)[nH]c2ccccc2c1=O)NCCCN1CCN(c2cccc(Cl)c2)CC1	3	-2	12%	2.7	nt	-0.4	-0.1	12
Cc1oc2c(CN3CCC(C)CC3)c(O)ccc2c(=O)c1-c1ccccc1	2	-3	-9%	-2.4	-0.8	1.5	0.2	3
FC(F)c1nc2ccccc2[nH]1	nt	1	15%	8.0	-1.0	-2.6	1.8	-5
Cn1c(=N)n(CC(=O)c2ccc(Cl)c(Cl)c2)c2ccccc21	5	19	nt	1.1	0.2	15	-4.9	-6
COc1ccc(-n2nnc3c(=O)n(CC(=O)Nc4cc(C)on4)cnc32)cc1OC	-1	-3	-3%	4.2	-1.7	-5.6	0.6	-3
COc1cc(OC)cc(C(=O)O/N=C(\N)c2cccc(C)c2)c1	-7	17	-5%	-1.4	-13	-5.7	-1.1	9
COc1ccc(/C=C/C(=O)NCCCNC(=O)/C=C/c2ccc(OC)c(OC)c2)cc1OC	nt	-3	nt	-1.0	-0.4	2.4	-0.5	4
COc1ccc(/C=C/C(=O)OCC(=O)N2CC(=O)Nc3ccccc32)cc1S(=O)(=O)N1CCOCC1	-4	0	?	2.5	0.0	0.8	0.8	-13
Cc1cc(C(=O)C(=O)O)c(C)n1-c1ccc(Cl)cc1	1	8	-1%	-1.8	-1.5	3.0	-0.1	-2
O=C(Nc1ccc(Oc2ccc(NC(=O)c3ccco3)c(NC(=O)c3ccco3)c2)cc1)c1ccco1	nt	-31	-6%&2%	-2.9	9.1	-3.0	0.5	-2
CC(C)c1nc2ccccc2n1CCC(=O)O	-1	-32	72%	3.8	nt	2.5	-0.7	-12
CN(C)c1ccc(/C=N/N(CCO)C2=NS(=O)(=O)c3ccccc32)cc1	5	-8	nt	2.7	0.8	24	1.9	0
O=S(=O)(c1ccc2c(c1)OCCO2)N(Cc1ccc(F)cc1)Cc1nnc(-c2cccs2)o1	-4	-1	-14%	-0.7	nt	-1.2	-0.1	-32
CN(CC(=O)Nc1ccc(Cl)c(C(F)(F)F)c1)C(=O)c1cccs1	-2	-5	6%	5.4	-1.1	-4.0	-2.0	-7
Cc1ccc(NC(=O)C2CCN(S(=O)(=O)c3cnc[nH]3)CC2)nc1	3	-3	17%	-1.0	nt	-5.4	0.0	2
CCC(Cc1ccccc1)NCc1c(C(=O)O)c(C)n(Cc2ccccc2)c1C (stereo not drawn)	-4	4	29%	1.5	3.7	-4.9	-0.6	-18
CSc1ccccc1OCc1cc(C(=O)N2C[C@H]3CC[C@H]2C3)no1	nt	-2	-2%	-0.2	0.6	-15	-2.2	-5
Cc1ccc(C2=Nc3c(ccc4ccccc34)C(c3ccncc3)=NN2)cc1	nt	17	nt	2.9	?	nt	nt	13
CSc1nc2ccc(NC(=O)c3cccs3)cc2s1	-1	nt	-17%	nt	-34	-2.7	-4.0	nt
O=C(c1ccc(Cl)cc1)C1CCCN(C(=O)/C=C/c2ccccn2)C1 (stereo not drawn)	-3	-3	2%	0.4	0.4	-5.2	1.3	2
Cc1ccc(NS(=O)(=O)c2ccc(NC(=O)C(C)Sc3ccc(Cl)cc3)cc2)c(C)c1 (stereo not drawn)	1	27	10%	0.2	-1.0	-5.0	-0.2	12
CCOCCn1c(C(C)O)nc2ccccc21 (stereo not drawn)	-5	-18	26%	-1.3	-4.2	-1.6	0.0	-6
O=C(Nc1ccc(N2CCCC2)cc1)c1cc(Cl)ccc1Cl	1	-17	nt	1.5	7.2	-8.0	1.1	8
Cc1ccc(C(C(=O)NCC2CCCO2)N(C(=O)c2snc(C(N)=O)c2N)c2ccc(C(C)C)cc2)o1 (stereo not drawn)	-11	12	nt	-3.7	8.1	2.5	-0.4	38
CCCOc1ccc(Cc2c(Cl)nc(SC)nc2NC)cc1	83*	-6	0%	?	-6.4	-1.1	-1.1	0
Cc1nc(-c2cccc(S(=O)(=O)N3CCCCCC3)c2)cs1	1	9	3%	2.3	nt	0.6	-0.4	7
Cn1ncc(Br)c1NC(=O)c1ccco1	-1	-6	5%	1.8	nt	2.2	0.8	3
Cc1cc(Cc2cc(C)c(N)cc2C)c(C)cc1N	-7	2	4%	2.0	2.7	-2.3	-0.6	-12
CC1CCC/C(=C\c2ccc(O)cc2)C1=O (stereo not drawn)	nt	-5	nt	17	2.7	-1.4	-0.6	4
CC(=O)OCC1OC(n2ccc3ccccc32)C(OC(C)=O)C(OC(C)=O)C1OC(C)=O (stereo not drawn)	-4	1	-2%	3.8	nt	1.6	-0.8	-12
c1ccc(Nc2ccc3c4c(cccc24)CC3)cc1	2	65*	6%	-17	nt	-0.7	1.8	12
CC(=O)c1ccc(OC(C)c2nc3ccccc3s2)cc1 (stereo not drawn)	2	9	nt	-2.8	-1.5	5.8	-0.3	-21
Cc1cc(C)n(C(=O)CCC2COc3ccccc3O2)n1 (stereo not drawn)	1	-14	-7%	0.7	nt	-4.8	0.7	-5
O=C(N/N=C/c1cccc(Oc2ccccc2)c1)c1ccc(O)cc1O	-10	6	nt	1.1	0.6	-3.0	0.5	24
CCCCN(C)CCCNC(=O)CN1N=C(c2ccc(Cl)cc2)CCC1=O	-3	20	-1%	2.5	0.0	-1.2	-0.9	-3
CCC(=O)NC(=S)Nc1ccc(-c2nc3ccc(C)cc3s2)cc1	4	-12	nt	-1.0	nt	-6.8	-1.0	14
Brc1ccc(-c2noc(-c3ccccn3)n2)o1	0	-6	3%	-0.6	-1.0	3.4	-13	10
Cc1ccc2ccc3cccnc3c2n1	86*	?	nt	-3.6	-1.5	1.4	-1.6	18
CCC(=O)NC(Nc1nc2ccc(C)cc2s1)(C(=O)OC)C(F)(F)F (stereo not drawn)	-2	1	-1%	1.6	nt	1.8	-1.0	2
NNC(=S)Nc1ccc(C(F)(F)F)cc1Cl	4	3	-7%	-1.2	1.0	7.0	-5.1	-1
O=c1cc(N2CCc3ccccc3C2)[nH]c(=O)n1C1CCCCC1	-3	12	-1%	54*	nt	-7.5	1.0	7

Following part.
SMILES	Beta cell apopt	T cruzi inh	Vif TR-FRET	RanGTP-Imp inh	MLL AF4-AF9 inh	LANA-H2B inh	Bfl-1 A1 inh	Calb FLC
O=C(NC1CCCCC1)C1CCN(S(=O)(=O)N2CCCCCC2)CC1	-1	-13	7%	-3.0	nt	1.9	0.2	-5
O=C(CSc1ccc(-c2ccc(F)cc2)nn1)N1CCN(c2ccccc2)CC1	-4	11	nt	-8.1	nt	3.2	-3.8	0
Cc1ccc(S(=O)(=O)N2CCCC2C(=O)Nc2nc3ccccc3s2)cc1 (stereo not drawn)	nt	12	3%&-4%	4.9	4.1	nt	nt	9
CCN(CC)C(=O)c1sc(NC(=O)c2ccncc2)c(C(=O)OC)c1C	3	-1	nt	1.7	nt	-2.9	-0.4	7
COC(=O)c1ccc(OCC(=O)c2ccc(O)cc2O)cc1	-3	-17	21%	-1.9	nt	4.4	-3.9	-19
CCOC(=O)N1CCN(C(=O)c2ccc3c(SCC(=O)O)c4c(nc3c2)CCC4)CC1	7	0	1.9µM*	8.8	5.7	-5.4	0.7	-3
C[C@H](NC(=O)[C@@H]1Cc2ccccc2CN1C(=O)OC(C)(C)C)C(=O)NC1CCCCC1	-3	8	3%	2.3	-7.2	0.6	-0.6	14
Cc1cc(C(=O)Nc2cnn(Cc3ccc(Cl)cc3Cl)c2)no1	-3	-8	18%	nt	nt	1.0	0.4	19
COc1ccc(C2CC(c3ccccc3)=NN2C(=O)COC(=O)c2cccc(S(=O)(=O)N(C)C)c2)cc1 (stereo not drawn)	6	20	nt	-2.5	-4.6	0.8	-0.1	-5
CCOc1cc(N2CCOCC2)c(OCC)cc1NC(=O)c1ccc(OC)cc1	-5	15	8%	1.8	-0.1	4.4	0.3	-1
O=C(CC1S/C(=N/N=C/c2cccnc2)NC1=O)Nc1ccccc1 (stereo not drawn)	0	nt	14%	nt	-2.2	-0.4	-0.2	-9

High-throughput results: PubChem BioAssay, several laboratories
